Rango complex inh: qHTS Assay for Inhibitors of Rango (Ran-regulated importin-beta cargo) - Importin beta complex formation. Importin subunit beta-1 (Homo sapiens), Q14974. Rango CFP/YFP FRET sensor + importin beta, 45 min. Potency, µM (series often up to 92.2 µM), inactives show top-dose inhibition of complex formation. actives 0.031% (n = 340,000). AID 540263, 2011; active = rising FRET ratio curve, often small or poorly fitted; inconclusive = mostly compound fluorescence or quenching in the first reads; inactive = flat curves in all reads;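 note: potency is the fitted concentration of half-maximal effect; 0% = DMSO wells and 100% = buffer wells lacking importin beta; nearly all actives have a fitted effect of over 15% in size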
Target sequence (Q14974 whole entry, looked up): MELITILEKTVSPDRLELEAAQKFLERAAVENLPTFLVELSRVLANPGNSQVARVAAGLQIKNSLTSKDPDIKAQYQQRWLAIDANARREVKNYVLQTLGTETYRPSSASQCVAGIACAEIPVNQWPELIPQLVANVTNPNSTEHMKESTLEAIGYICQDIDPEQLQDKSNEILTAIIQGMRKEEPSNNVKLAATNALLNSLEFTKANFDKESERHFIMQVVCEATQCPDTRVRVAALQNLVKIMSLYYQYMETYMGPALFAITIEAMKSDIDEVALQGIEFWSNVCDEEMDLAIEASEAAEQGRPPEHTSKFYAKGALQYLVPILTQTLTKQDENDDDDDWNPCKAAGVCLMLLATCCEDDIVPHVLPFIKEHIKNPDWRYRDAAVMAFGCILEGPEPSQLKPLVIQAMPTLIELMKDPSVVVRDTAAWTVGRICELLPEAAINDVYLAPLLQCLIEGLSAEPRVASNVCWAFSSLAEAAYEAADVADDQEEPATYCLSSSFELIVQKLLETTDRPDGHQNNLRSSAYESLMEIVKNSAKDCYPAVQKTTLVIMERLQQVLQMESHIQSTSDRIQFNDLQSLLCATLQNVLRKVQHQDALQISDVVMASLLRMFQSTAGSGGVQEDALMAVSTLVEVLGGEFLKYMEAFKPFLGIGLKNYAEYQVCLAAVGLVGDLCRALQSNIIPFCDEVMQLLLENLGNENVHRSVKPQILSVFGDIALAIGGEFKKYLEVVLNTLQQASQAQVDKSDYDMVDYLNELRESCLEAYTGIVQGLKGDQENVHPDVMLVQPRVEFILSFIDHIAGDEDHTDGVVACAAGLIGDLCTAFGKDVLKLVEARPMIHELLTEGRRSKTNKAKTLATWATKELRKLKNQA
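Inhibition scored from the CFP 486 nm/YFP 530 nm FRET ratio 45 min after adding 0.125 microM importin beta to 50 nM Rango biosensor preincubated 5 min with compound (room temperature, PBS with DTT, Tween-20, BSA). No-importin wells as positive control.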
miR-21 FLuc: qHTS Assay for Modulators of miRNAs and/orActivators of miR-21 | AID 2288, 2010 | 340,000 tested, under 10 active | HeLa miR-21 FLuc reporter, luciferase, 48 h | Potency, µM (highest dose often 38.3 µM), without a hit: at the highest dose reporter change, positive = more light; active = well fitted rising curve with a large enough effect; inconclusive = small, poorly fitted or top-dose-only effect; inactive = no such curve, though single readings can be large or run the other way;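 note: % of control where 0% means no effect; miR-21 action dims this reporter so a rising signal means less miR-21 action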
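Using DMEM plus 10% FBS, HeLa miR-21-FLuc cells are incubated with test compounds (final up to about 40uM) for 48 hours; firefly luciferase signal is then imaged following reagent-mediated lysis.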
GLA inh pH 4.5: qHTS Assay for Inhibitors of Human alpha-Galactosidase at pH 4.5. purified enzyme, 4-MU-alpha-Gal fluorescence, pH 4.5. Alpha-galactosidase A (Homo sapiens), P06280. 230,000 tested, under 10 active. activity change, negative = inhibition, % at 105 µM. AID 1467, 2008; inconclusive = small, poorly fitted or top-dose-only inhibition, or a rising curve; inactive = flat fitted curve, though single readings scatter; no compound was filed as active;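 note: 0% = full activity with enzyme and -100% = basal without enzyme; dose as in the result columns while the protocol names 77 µM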
Rango release inh: qHTS Assay for Inhibitors of RanGTP induced Rango (Ran-regulated importin-beta cargo) - Importin beta complex dissociation; Snurportin-1 (Homo sapiens) + GTP-binding nuclear protein Ran (Homo sapiens) + Importin …; Biochemical FRET Rango-importin beta, RanGTP-induced dissociation; Potency, µM (doses to about 46.1 µM), inactives show at the top dose activity change, negative = inhibition; actives 0.071% (n = 340,000); active means falling FRET ratio curve, often poorly fitted, with flat reads before Ran was added; inconclusive means other falling curves, or compound fluorescence or quenching; inactive means flat or rising ratio curve;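 note: potency is the fitted concentration of half-maximal effect; % of control where 0% means no effect; nearly all actives have a fitted effect of over 45% in size; -100% = wells without RanGTP and RCC1; the record marks most hits as doubtful in a second field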
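Rango (0.1 uM)–importin beta (0.25 uM) complex; RanGTP-RCC1 trigger; 45 min RT; CFP/YFP FRET read.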
* = called active by the depositor; u = inconclusive; x = not tested or not shown; & = joins results of further samples.

cpd	Structure	Rango complex inh	miR-21 FLuc	GLA inh pH 4.5	Rango release inh
1	Cn1cc(S(=O)(=O)N2CCCC2)cc1C(=O)NCc1ccc(F)cc1	0.1%	2%	x	-4%
2	COc1ccc(NS(=O)(=O)c2cc(NC(=O)CCc3ccccc3)ccc2N2CCOCC2)cc1	-0.2%	x	x	-10%
3	Cc1cc(CNC(=O)CC2C(=O)NCCN2CC(c2ccccc2)c2ccccc2)on1 (configuration not stated)	5.9%	-2%	5	5%
4	CN(C)c1nc(N)nc(-c2nc3ccccc3s2)n1	1.1%	-51%	2	4%
5	CC(=O)Nc1cccc(NC(=O)CSc2nnnn2C(C)C)c1	-2.1%	-1%	9	1%
6	CSCC[C@H](NC(=O)N1CCn2c1nc1ccccc12)C(=O)N1CCCCC1	7.0%	-4%	x	-3%
7	CC(C)OC(=O)c1ccc(N2CCN(c3ccc(F)cc3)CC2)nc1	1.2%	4%	x	0%
8	COCCCNCCOCCOc1ccccc1-c1ccccc1	-0.4%	-8%	9	-5%
9	CCOC(=O)N1CCN(C(=S)Nc2ccc(C)cc2)CC1	-3.2%	-6%	-2	-2%
10	O=C(O)[C@H]1CCCN1C(=O)c1ccccc1N1C(=O)[C@@H]2Cc3c([nH]c4ccccc34)C(c3cccc(Cl)c3)N2C1=O (some centres not stated)	-3.6%	-1%	x	-10%
11	CCNC(=S)SCCOc1ccccc1C	2.5%	-3%	0	-12%
12	COc1ccc(C2(C)NC(=O)N(CC(=O)Nc3ccc(C)cc3Br)C2=O)cc1OC (configuration not stated)	1.0%	7%	x	-3%
13	CCCc1nc2nc(C)c(NS(=O)(=O)c3ccc([N+](=O)[O-])cc3)c(=O)n2[nH]1	4.3%	-1%	x	0%
14	CN(C)S(=O)(=O)c1cccc(C(=O)Nc2cc3c(cc2C(=O)O)OCCCO3)c1	0.3%	-16%	x	-2%
15	O=C(CCN1CCN(c2ccccc2)CC1)Nc1ccccc1	8.9%	-3%	x	-4%
16	Cn1c(=O)[nH]c(=O)c2c1nc(CN1CCN(c3ccccc3F)CC1)n2CC(N)=O	-7.0%	2%	3	20%
17	Cc1cc(NC(=O)C(=O)NCCN2CCN(C(=O)c3cccs3)CC2)ccc1Br	-1.2%	-8%	-5	8%
18	COc1cc(C(=O)NNC2=NC(C)(C)Cc3cc(C)c(C)cc32)cc(OC)c1OC	-0.4%	-9%	0	4%
19	O=S1(=O)CC(O)C(NCc2ccco2)C1 (configuration not stated)	-1.6%	0%	0	-6%
20	COc1ccc(-c2nc(N)ncc2-c2csc(C)n2)c(O)c1	0.4%	-37%	-3	-4%
21	COc1ccccc1CN(C)C(=O)c1cccc(S(=O)(=O)N2CCc3ccccc3C2)c1	2.6%	x	x	10%
22	CC1(C)O[C@@H]2[C@H](O1)[C@@H](COS(=O)(=O)O)O[C@H]2n1c(=S)[nH]c2c(=O)[nH]c(N)nc21	4.2%	x	x	-5%
23	CCOC(=O)C1CCCCN1C(=O)CCn1nnnc1CN1CCOCC1 (configuration not stated)	-2.0%	-4%	x	1%
24	COc1cc(/C=N/Nc2ccc(Cl)c(C(=O)O)c2)ccc1OC(=O)c1cccs1	-2.3%	-39%	10	-9%
25	CN(/N=C/c1ccc2c(c1)OCO2)c1ccccc1	1.5%	-66%	-14	4%
26	CO/N=C/c1c(C(=O)OC)nn(-c2ccccc2)c1Cl	-0.1%	-3%	0	14%
27	O=C1c2ccccc2C(Nc2ccc(S(=O)(=O)N3CCCCCC3)cc2)N1c1ccccn1 (configuration not stated)	-2.4%	-2%	3	-4%
28	C=CCOc1c(Br)cc(/C=C(\C#N)C(N)=O)cc1OC	-4.8%	7%	4	-4%
29	Cc1c(C(=O)N(Cc2cccc(Br)c2)C2CCS(=O)(=O)C2)oc2ccccc12 (configuration not stated)	0.7%	11%	x	0%
30	CC1=NN(C(=O)c2nn(C)cc2Br)C(O)(C(F)(F)F)C1 (configuration not stated)	-4.9%	-50%	6	-3%

Record cards (already shown):
COc1cc(C(=O)NNC2=NC(C)(C)Cc3cc(C)c(C)cc32)cc(OC)c1OC as listed: Rango complex inh = -0.4%; miR-21 FLuc = -9%; GLA inh pH 4.5 = 0; Rango release inh = 4%
Cc1cc(NC(=O)C(=O)NCCN2CCN(C(=O)c3cccs3)CC2)ccc1Br as listed: Rango complex inh = -1.2%; miR-21 FLuc = -8%; GLA inh pH 4.5 = -5; Rango release inh = 8%
Cc1c(C(=O)N(Cc2cccc(Br)c2)C2CCS(=O)(=O)C2)oc2ccccc12 (configuration not stated) as listed: Rango complex inh = 0.7%; miR-21 FLuc = 11%; GLA inh pH 4.5 = x; Rango release inh = 0%

Three compounds drawn at random from those above, as already listed:
cpd	Structure	Rango complex inh	miR-21 FLuc	GLA inh pH 4.5	Rango release inh
23	CCOC(=O)C1CCCCN1C(=O)CCn1nnnc1CN1CCOCC1 (configuration not stated)	-2.0%	-4%	x	1%
16	Cn1c(=O)[nH]c(=O)c2c1nc(CN1CCN(c3ccccc3F)CC1)n2CC(N)=O	-7.0%	2%	3	20%
24	COc1cc(/C=N/Nc2ccc(Cl)c(C(=O)O)c2)ccc1OC(=O)c1cccs1	-2.3%	-39%	10	-9%

Carrying on.
cpd	Structure	Rango complex inh	miR-21 FLuc	GLA inh pH 4.5	Rango release inh
31	O=C(NCc1csc(-c2cccs2)n1)Nc1ccc(F)cc1F	u	-18%	-2	-12%
32	Cc1cc(Nc2c(C)cccc2C)n2nc(C)nc2n1	-5.3%	-18%	-3	-14%
33	CCCCCCN(C(=O)CCCCCN1C(=O)NC(c2ccc(C(C)(C)C)cc2)C(C(=O)OCc2ccccc2)=C1C)C(C(=O)NCCCC)c1ccc(OCC(=O)OC)c(C(=O)OC)c1 (configuration not stated)	x	-4%	-11&2	x
34	CCOc1cccc(C(=O)NC(=S)Nc2cccc(C)c2)c1	-0.4%	-32%	-19	3%
35	O=C(CCC(C(=O)O)N1C(=O)c2ccccc2C1=O)Nc1ccccc1 (configuration not stated)	0.0%	x	x	u
36	O=[N+]([O-])c1ccccc1OCC(O)CN1CCN(CC(O)COc2ccccc2[N+](=O)[O-])CC1 (configuration not stated)	-3.3%	3%	x	-14%
37	CCc1ccc(N2CC(C(=O)Nc3nnc(CC)s3)CC2=O)cc1 (configuration not stated)	0.9%	-6%	-2	-5%
38	CCN1C(=O)/C(=C2\C=Cc3cc(C)ccc3N2CC)OC1=S	0.5%	-23%	-1	23%
39	FC(F)(F)C1CC(c2cccs2)Nc2ncnn21 (configuration not stated)	-3.6%	-5%	2	-10%
40	Cc1c(NC(=O)c2cccc(NC(=O)Cc3c(F)cccc3Cl)c2)c(=O)n(-c2ccccc2)n1C	1.5%	x	x	16%
41	COC(=O)c1cnc(SC)nc1C	2.8%	-3%	-4	5%
42	CN1CCN(C(=O)c2ccc(Cl)c(S(=O)(=O)N3CCCCCC3)c2)CC1	1.7%	-2%	-7	-10%
43	CCCc1oc2c(c(=O)c1CC)C(=O)CC(C)(C)C2	0.0%	-5%	1	-3%
44	O=C(COc1ccc2c(-c3ccccc3)cc(=O)oc2c1)NCCN1CCOCC1	-1.3%	0%	x	-2%
45	COc1cc(NC(=O)CCCNC(=O)Cn2cnc3sc(C)c(C)c3c2=O)cc(OC)c1OC	1.5%	9%	x	16%
46	COc1cccc(CC(NC(C)=O)C(=O)NC2CCN(S(=O)(=O)c3ccc(F)cc3)CC2)c1OC (configuration not stated)	-0.9%	-1%	2	-10%
47	CCC(C)NC(=O)CN(C)S(=O)(=O)c1ccc2c(c1)c(=O)n(C)c(=O)n2C (configuration not stated)	-1.9%	0%	-3	-6%
48	CCOc1cc(C2C3=C(CC(C)(C)CC3=O)N(CCOC)C3=C2C(=O)CC(C)(C)C3)ccc1OC	-0.8%	2%	x	-19%
49	CCOC(=O)C(=O)Nc1cc([N+](=O)[O-])ccc1C	-0.2%	-6%	10	-10%
50	O=C1NC(=Nc2ccc(Cl)cc2)SC1Cc1cc(Cl)ccc1Cl (configuration not stated)	5.4%	-9%	-3	u
51	O=C(CCN1C(=O)/C(=C/c2ccccc2Cl)SC1=S)Nc1ccccc1C(=O)O	5.2%	0%	x	-2%
52	CCCCC(O)(CCCC)C(=O)NN(C(=O)c1cccnc1Cl)c1ccccc1	1.4%	10%	-1	0%
53	Cc1cccc2c1cnn2C(=O)Nc1ccccc1Cl	4.1%	-30%	x	3%
54	O=C(COc1c(CO)cc(Br)cc1CO)NC1CCCc2ccccc21 (configuration not stated)	1.4%	8%	3	-1%
55	Cc1c(NS(=O)(=O)c2ccc(NC(=O)CCC(=O)O)cc2)c(=O)n(-c2ccccc2)n1C	0.5%	-2%	x	3%
56	Cc1cccc(N2CCN(C(=O)CSc3nc4ccccc4nc3N3CC(C)OC(C)C3)CC2)c1C (configuration not stated)	-2.6%	17%	x	1%
57	COc1cccc(C2c3c(C)nn(-c4ccc([N+](=O)[O-])cc4)c3N=C3C(=O)Nc4ccccc4N32)c1 (configuration not stated)	-2.6%	-3%	-8	4%
58	Cc1ccc(C)c2c1[nH]c1ccccc12	-0.5%	1%	-1	14%
59	CCOC(=O)/C=C/C(=O)OCC(=O)Nc1cccc(Cl)c1Cl	0.5%	3%	8	13%
60	C(=N\Nc1ccc2ccccc2n1)/c1ccc2c(c1)OCCO2	3.1%	u	-4	-9%
61	O=S(=O)(Nc1ccccn1)c1ccc(Br)cc1	0.5%	-2%	x	5%
62	CCC(C(=O)NC1CCCC1)N(Cc1ccco1)C(=O)Cn1nnc(-c2ccc(C)cc2)n1 (configuration not stated)	-0.4%	11%	3	5%
63	CCN(C[C@H]1N[C@@](CC)(C(=O)OC)[C@H]2C(=O)N(C)C(=O)[C@@H]12)S(=O)(=O)c1ccc(OC)cc1	0.4%	x	x	-8%
64	Cc1ccc(SC(CC(=O)c2ccc(F)cc2)C(=O)O)cc1 (configuration not stated)	-0.3%	16%	x	0%
65	COCCOC(=O)C(C#N)c1nc2ccccc2nc1N1CCCC1 (configuration not stated)	u	-4%	-5	u
66	O=C(Cn1cccc1C(=O)c1ccccc1)NCc1ccco1	1.7%	-7%	3	-1%
67	COc1cccc(NC(=O)COc2cc(C)cc3oc(=O)cc(C)c23)c1	-0.2%	3%	x	-4%
68	Cc1ccc(C(=O)O)cc1NS(=O)(=O)c1ccc2c(c1)oc(=O)n2C	-0.4%	0%	x	0%
69	Cc1cc(C(=O)NC2CCCCC2)c2cc(F)ccc2n1	3.8%	0%	6	2%
70	CCOc1ccc(C(=O)NC2CCCCCCC2)cc1	-1.0%	x	x	1%
71	O=C(O)COc1ccccc1C(Nc1cccnc1)c1cc(Cl)c2cccnc2c1O (configuration not stated)	0.4%	0%	0	2%
72	CC1CN(C(=O)COC(=O)/C=C/c2cccc([N+](=O)[O-])c2)CC(C)O1 (configuration not stated)	2.7%	x	x	-6%
73	CS(=O)(=O)N(CC(N)=O)c1ccc2c(c1)OCO2	-2.8%	-4%	-9	12%
74	CCOc1ccccc1NC(=O)C(=O)N/N=C/c1cc(Br)ccc1O	2.9%	1%	-5	-20%
75	O=C(Cc1ccccc1)N/N=C/c1ccc[nH]1	u	0%	-4	-29%
76	COc1cc(/C=C2/CC/C(=C/c3ccc(O)c(OC)c3)C2=O)ccc1O	u	22%	-22	u
77	CCOc1cccc(-c2cc(C(=O)NN)[nH]n2)c1	-0.2%	-26%	-18	-11%

Bioassay records deposited in PubChem BioAssay by National Center for Advancing Translational Sciences (NCATS).

Not all compounds are listed; count on the stated rates, not on these rows.
